High-throughput results (PubChem)
KCNQ2 block – KCNQ2 channel blockers in CHO-K1 cells – cell-based, FluxOR thallium flux, B-score, primary screen (AID 2156); O88943; 20 min; stronger effect = lower value; only compounds with negative scores are shown here; some inactives read as strong as hits; B-score at 10 µM; 310,000 compounds, 1.1% hits;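 active = fluorescence ratio B-score at most minus 3 library SDs, with starting brightness B-score within 2 library SDs, cut at about -5.5 in these data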
Target sequence (O88943 whole entry, looked up): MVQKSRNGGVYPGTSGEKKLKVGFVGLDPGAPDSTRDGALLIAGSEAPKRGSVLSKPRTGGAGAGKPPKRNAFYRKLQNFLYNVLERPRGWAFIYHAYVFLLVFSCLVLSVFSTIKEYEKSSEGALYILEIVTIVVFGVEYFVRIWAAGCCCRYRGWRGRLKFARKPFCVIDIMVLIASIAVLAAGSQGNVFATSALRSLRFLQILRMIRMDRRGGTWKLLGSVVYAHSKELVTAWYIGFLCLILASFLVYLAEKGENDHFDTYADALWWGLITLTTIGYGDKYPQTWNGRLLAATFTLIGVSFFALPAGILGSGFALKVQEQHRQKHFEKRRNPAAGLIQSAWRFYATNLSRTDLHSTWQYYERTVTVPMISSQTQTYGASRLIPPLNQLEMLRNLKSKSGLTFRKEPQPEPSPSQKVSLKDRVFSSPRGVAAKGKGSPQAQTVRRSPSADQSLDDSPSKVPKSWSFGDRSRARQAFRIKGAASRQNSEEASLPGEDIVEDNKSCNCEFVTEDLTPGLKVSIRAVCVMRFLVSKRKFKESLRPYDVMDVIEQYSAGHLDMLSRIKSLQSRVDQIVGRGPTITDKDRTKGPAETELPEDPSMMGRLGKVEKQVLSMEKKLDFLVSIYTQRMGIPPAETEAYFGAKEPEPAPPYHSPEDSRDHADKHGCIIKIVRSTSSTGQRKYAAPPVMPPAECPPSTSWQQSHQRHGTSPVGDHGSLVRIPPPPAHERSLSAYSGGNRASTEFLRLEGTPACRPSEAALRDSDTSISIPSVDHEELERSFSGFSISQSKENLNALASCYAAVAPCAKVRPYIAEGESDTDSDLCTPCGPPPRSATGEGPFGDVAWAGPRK
KCNQ2 block baseline – further read-out of KCNQ2 block, marked with its call; B-score; measured here: initial fluorescence intensity artifact check;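 brightness before thallium and not channel activity; 0 = typical well and far values either way flag optical interference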
Starred values were filed as active, the others as inactive; i = inactive. Some of the compounds tested (hit frequency here may not be typical).

KCNQ2 block baseline,KCNQ2 block,canonical_smiles
0.98,i,COc1ccc(NS(=O)(=O)c2ccc(NC(=S)NC(=O)c3cccc(F)c3)cc2)nn1
0.37,i,CN(C)S(=O)(=O)c1ccc(NC(=O)N2CCOCC2)cc1
0.4,i,CCCCOC(=O)CSc1nnc(N)s1
0.61,i,CCOC(=O)Cc1c(C)nc2c(-c3ccc(Cl)cc3)c(C)nn2c1C
-0.7*,-6.1*,CC12CCC(=O)N1C(C(=O)Nc1ccc(Cl)c(S(=O)(=O)N3CCCCC3)c1)CS2 (stereo unspecified)
-0.2,i,CCCN(CC(=O)Nc1ccccc1C)C(=O)c1cccc(S(=O)(=O)N2CCN(c3ccccc3)CC2)c1
-0.01,i,S=C(NCc1ccccc1)NCc1ccc(Cl)cc1
0.01,i,Cc1ccc2nc(N3CCN(C(=O)c4cccs4)CC3)c(C#N)cc2c1
1.3,i,O=[N+]([O-])c1ccc2c(c1)[nH]c(=S)n2-c1ccccc1
-0.79,i,Cc1ccc(S(=O)(=O)N2CCCCC2)cc1NC(=O)CSc1nnc(N)s1
0.53,i,COc1cc(NC(=O)COc2ccc(-n3cnnn3)cc2)c(OC)cc1Cl
1.1,i,C=CCOCCN1C(=O)C2C3C=CC(C2C1=O)C1C2C(=O)N(CCOCC=C)C(=O)C2C31 (stereo unspecified)
0.01,i,N#CCNC(=O)c1nn2c(C(F)(F)F)cc(-c3ccccc3)nc2c1Br
-0.29,i,Cc1nn(Cc2ccc(Cl)cc2)c(C)c1NC(=O)C(c1ccccc1)c1ccccc1
0.95,i,O=C(C/C=N\OCc1ccc([N+](=O)[O-])cc1)Nc1ccccc1
0.16,i,COC(=O)CN1C(=O)N/C(=C/c2cc(OC)c(OC)cc2C)C1=O
-1.4,i,CCC(C)N(C(=O)COC(=O)CNC(=O)c1ccccc1F)C1CCS(=O)(=O)C1 (stereo unspecified)
-0.64,i,Cc1ccc(OC(=O)c2ccc([N+](=O)[O-])cc2Cl)cn1
0.67,i,Cc1ccc(C(=O)NC(=S)Nc2cc(C(F)(F)F)ccc2Cl)cc1
1.6,i,C/C(CC(=O)Nc1ccc(C)c(Cl)c1)=N\NC(=O)Cc1cccs1
0.15,i,Cc1ccc(NCc2cccnc2)cc1
-2.6,i,O=[N+]([O-])c1cc(-c2ccn[nH]2)ccc1Cl
0.21,i,COc1ccc(Br)cc1C(=O)O
-0.34,i,CCNC(=O)c1ccccc1NC(=O)c1cccc(S(=O)(=O)N2CCC(C)CC2)c1
0.25,i,O=C(CN(c1ccccn1)S(=O)(=O)c1ccccc1)Nc1ccccc1

Sorted by value in KCNQ2 block baseline (lowest first): some entries from above.
KCNQ2 block baseline,KCNQ2 block,canonical_smiles
-2.6,i,O=[N+]([O-])c1cc(-c2ccn[nH]2)ccc1Cl
0.01,i,N#CCNC(=O)c1nn2c(C(F)(F)F)cc(-c3ccccc3)nc2c1Br
0.16,i,COC(=O)CN1C(=O)N/C(=C/c2cc(OC)c(OC)cc2C)C1=O

Three entries drawn at random from those above, as already listed:
KCNQ2 block baseline,KCNQ2 block,canonical_smiles
-0.29,i,Cc1nn(Cc2ccc(Cl)cc2)c(C)c1NC(=O)C(c1ccccc1)c1ccccc1
0.37,i,CN(C)S(=O)(=O)c1ccc(NC(=O)N2CCOCC2)cc1
1.3,i,O=[N+]([O-])c1ccc2c(c1)[nH]c(=S)n2-c1ccccc1

Following part:
KCNQ2 block baseline,KCNQ2 block,canonical_smiles
0.74,i,Brc1ccc(CSc2ncn[nH]2)cc1
-2.2,i,CC(=O)Nc1nc(CC(=O)c2ccccc2)cs1
-0.03,i,Cc1ccc(S(=O)(=O)N2CCC(C(=O)N[C@@H](C)C(=O)Nc3ccc4c(c3)OCO4)CC2)cc1
-0.2,i,CC1CCCCN1CCCNc1ccc(C(CC(N)=O)NC(=O)Cc2ccc(Cl)cc2)cc1[N+](=O)[O-] (stereo unspecified)
2.2,i,COc1cc(SC)ccc1C(=O)Nc1ccon1
2,i,COCCN(C/C=C/c1ccccc1)C/C=C/c1ccccc1
-0.09,i,Cc1ccc(S(=O)(=O)N2c3ccccc3CC2C)cc1 (stereo unspecified)
0.54,i,COc1ccc(-n2nnnc2SCC(=O)N2CCCc3ccccc32)cc1OC
-0.23,i,COc1ccccc1OCC(=O)NCC(C)NC(=O)COc1ccccc1OC (stereo unspecified)
0.09,i,Cc1ccc(NC2c3ncccc3C(=O)N2Cc2cccs2)cc1C (stereo unspecified)
0.01,i,Cc1ccccc1NC(=S)NCc1ccc(F)cc1
0.52,i,O=C(N/C(=C/c1ccc(Br)cc1)C(=O)N1CCOCC1)c1ccc(Br)o1
0.02,i,COc1ccc(/C=N/c2oc(-c3ccccc3)cc2C#N)cc1OC
-1.8,i,COc1ccc(CNC(=O)C2CCN(S(=O)(=O)c3ccc4c(c3)NC(=O)C(C)S4)CC2)cc1 (stereo unspecified)
-0.2,i,CN(Cc1ccccc1)C(=O)CCSc1nc(-c2ccc3c(c2)OCO3)cc(C(F)(F)F)n1
0.58,i,Cc1cc(N2CCOCC2)nc2ccc(NC(=S)NCCC(C)C)cc12
0.58,i,Cc1sc(NC(=S)NC(=O)c2ccc(C(C)(C)C)cc2)c(C#N)c1C
0.43,i,CC1(C)C(=O)Nc2ccccc2N1C(=O)CN1C(=O)c2ccccc2C1=O
1.9,i,Cc1ccc(C(=O)CNc2cc(C)ccc2C)cc1
0.32,i,NC(=O)C1CCN(C(=O)CCC(=O)c2ccc(F)cc2)CC1
-0.71,i,O=C(Nc1cccc(CCc2ccccn2)c1)c1cc(F)c(F)cc1Cl
1.6,i,CC(C)(C)[C@H]1C=C(C(=O)NCc2ccccc2)O[C@@H](OCc2ccc(CO)cc2)C1
1.6,i,CC(=O)c1ccc(NC(=O)CSc2nnc(-c3ccncc3)o2)cc1
-1.1,i,CCn1c(C)cc(=O)cc1-c1ccc(Cl)cc1
-1.1,i,O=C(CSCc1c(Cl)cccc1Cl)Nc1ccccc1-c1ccccc1

Whole records from above. Values in the order: KCNQ2 block baseline, KCNQ2 block
Listed for COc1ccccc1OCC(=O)NCC(C)NC(=O)COc1ccccc1OC (stereo unspecified) → -0.23, i
Listed for COc1ccc(-n2nnnc2SCC(=O)N2CCCc3ccccc32)cc1OC → 0.54, i
Listed for CCn1c(C)cc(=O)cc1-c1ccc(Cl)cc1 → -1.1, i

(further entries)
KCNQ2 block baseline,KCNQ2 block,canonical_smiles
0.15,i,Cc1cccc(C(=O)Nc2nc3ccc(S(C)(=O)=O)cc3s2)c1
0.82,i,O=C(Cn1ccccc1=O)NCc1ccc(F)cc1
-0.92,i,O=C(CN(Cc1ccccc1Cl)C(=O)c1csnn1)NCc1ccc2c(c1)OCO2
-1.1,i,COc1ccccc1CCNC(=O)C(=O)NCC1OCCN1S(=O)(=O)c1ccc2c(c1)OCCO2 (stereo unspecified)
-0.47,i,CCOc1cccc(-c2csc(C3COc4ccccc4O3)n2)c1 (stereo unspecified)
-1.6,i,COc1ccc(S(=O)(=O)Cc2ccc(C(=O)NC3CCC(C)CC3)o2)cc1 (stereo unspecified)
-0.49,i,C=CCSc1nnc(-c2ccccc2NC(C)=O)c(=O)[nH]1
0.72,i,O=C(Nc1ccc(-n2cccn2)cc1)C1CCN(Cc2ccsc2)CC1
-0.68,i,COc1ccccc1NC(=O)CN1CCN(c2ccccn2)CC1
0.23,i,COc1ccccc1C(c1nnnn1CC1CCCO1)N1CCC(C(N)=O)CC1 (stereo unspecified)
0.12,i,Cn1nc(-c2ccc(Cl)cc2)c2cc(C(=O)N3CCN(c4ccccc4)CC3)sc21
-0.08,i,COc1ccc(-c2csc3nc(-c4ccccc4)oc(=O)c23)cc1OC
0.79,i,Cc1ccc(NS(=O)(=O)c2ccc(CCC(=O)NCc3ccccn3)cc2)cc1
-1.4,i,Cn1c(=O)c2c(nc(N/N=C/c3ccc(OC(=O)c4ccco4)cc3)n2Cc2ccccc2Cl)n(C)c1=O
-0.71,i,CCOC(=O)Cc1csc(NC(=O)Nc2ccc(C)cc2)n1
1.1,i,CC1=Nc2cc(C(=O)N3CCCC3)ccc2Sc2c(C)ccc(C)c21
-0.01,i,COc1c(C)cccc1C(=O)Nc1ccc(OCC(=O)N2CCOCC2)cc1C
-1,i,O=C(O)CCCn1cc(NC(=O)COc2ccccc2F)cn1
0.21,i,COc1ccc(C(C)=O)cc1CSc1nc2nc(C)cc(C)n2n1
-1,i,CCOC(=O)c1c(C)[nH]c(C(=O)COC(=O)c2ccc(N3CCCC3=O)cc2)c1C
1.4,i,CC(C)(C)NC(=O)Nc1ccc(F)c(Cl)c1
1,i,CN(C)C(CNC(=O)Cc1ccc([N+](=O)[O-])cc1)c1ccccc1 (stereo unspecified)
-0.05,i,Fc1ccc(/C=N/NC2=Nc3cccc4cccc2c34)cc1
-0.05,i,O=C(CNS(=O)(=O)c1ccc(F)cc1)N1CCN(c2ccccc2)CC1
0.05,i,CCOc1ccc(-n2c(SCC(=O)NCc3ccco3)nc3c([nH]c4ccccc43)c2=O)cc1
-0.37*,-6.9*,Cc1ccccc1NC(=O)c1c2c(nc3ccccc13)CCC2
-2.5,i,N#Cc1cccc(S(=O)(=O)N2CCN(c3ccnc4cc(Cl)ccc34)CC2)c1
2.4,i,Cc1csc(NC(=O)CSc2nnc(CCNC(=O)c3cccs3)n2C)n1
1.2,i,CC(=O)Nc1ccc(C(=O)N2CC(=O)NC(=O)C2)cc1
-2.3,i,Cc1ccc2c(c1)NC(=O)C(CC(=O)Nc1ccc(CN3CCC(C)CC3)cc1)O2 (stereo unspecified)
-0.4,i,COc1cc(OC)cc(-c2n[nH]c(=S)n2-c2ccc3c(c2)OCCO3)c1
0.4,i,COCCN(C(=O)C(F)(F)F)C(C(=O)NC1CCCCC1)c1ccco1 (stereo unspecified)
3.4,i,CCn1c(C(=O)NC2CCC(C)CC2)cc2sccc21 (stereo unspecified)
2.2,i,Cc1ccc(S(=O)(=O)N(C)c2ccc(OC(=O)CN3C(=O)NC4(CCCC4)C3=O)cc2)cc1C
-0.34,i,CC1CCN(C(=O)CSc2nc3[nH]ncc3c(=O)[nH]2)CC1
-0.03,i,COc1cccc(N(C(=O)C2CSC(=O)C2)C(C(=O)NC(C)(C)C)c2ccncc2)c1 (stereo unspecified)
0.64,i,O=C(Nc1cccc(F)c1)c1cc(S(=O)(=O)NCCC2=CCCCC2)ccc1F
0.37,i,COc1ccc(C)cc1NC(=O)CN(C)S(=O)(=O)c1cccs1
3.3*,-7.5*,N#Cc1ccc(NC(=O)N2CCC(c3nc4c(nnn4Cc4cccc(Cl)c4)c(=O)[nH]3)CC2)cc1
0.42,i,CCN(CC)S(=O)(=O)c1cc(NC(=O)c2ccc(Br)s2)ccc1C
-0.05,i,COc1ccccc1C(=O)Nc1ccc(NC(=O)C2CCCCC2)nc1
1.3,i,Cc1ccc2[nH]c(-c3cccc(F)c3)cc(=O)c2c1
0.66,i,Cc1ccc(NC(=O)C(C)NC(=O)OCc2ccccc2)cc1C (stereo unspecified)
-3.4,i,CC(C)=NNc1nc2c(c(=O)[nH]c(=O)n2C)n1CCc1ccccc1
2,i,O=C1N(CN2CCOCC2)c2ccccc2C12OCC(CCl)O2 (stereo unspecified)
-0.05,i,COc1cccc(-n2c(CN3CCN(Cc4ccccc4)CC3)nc3ccc([N+](=O)[O-])cc3c2=O)c1
-0.68,i,CCOC(=O)C1NN=C(C(=O)c2ccccc2)C1c1ccccc1 (stereo unspecified)
-0.1,i,COc1ccc(-n2nc(C(=O)NCC(=O)N(C)Cc3ccccc3)c3ccccc3c2=O)cc1
-0.4,i,O=C(CSc1nnc(-c2ccccc2)o1)Nn1cnnc1
-2.5,i,CCOC(=O)/C(C#N)=C\C1=C(N2CCCC2)CC(C)(C)OC1

The list goes on.
KCNQ2 block baseline,KCNQ2 block,canonical_smiles
0.35,i,Brc1ccc(C2=Nn3c(Cn4nnc5ccccc54)nnc3SC2)cc1
0.34,i,COCCN(C(=O)CSc1nnc(C)n1Cc1ccccc1)c1c(N)n(Cc2ccccc2)c(=O)[nH]c1=O
-0.36,i,CCOC(=O)c1ccccc1NC1CC(=O)N(c2ccccc2C)C1=O (stereo unspecified)
0.08,i,O=C(c1ccc(OC2CCN(Cc3ccccc3C(F)(F)F)CC2)cc1)N1CCCCC1
-0.76,i,CS(=O)(=O)N1CCN(S(=O)(=O)c2ccccc2[N+](=O)[O-])CC1
-2.3,i,COc1cc2[nH]c(=O)n(CCCCCC(=O)N3CCN(c4ccccn4)CC3)c(=O)c2cc1OC
-0.03,i,CCOCCOC(=O)c1cccc(NC(=O)OCC)c1
1.8,i,CCn1nnc(-c2ccccc2NS(=O)(=O)c2ccc(S(=O)(=O)N3CCCCCC3)cc2)n1
-0.33,i,Cc1ccc(-n2c(CNc3ccc(F)cc3)nnc2SCC(=O)N2CCOCC2)cc1
-0.34,i,COCCSc1ccccc1C(=O)Nc1cc(C)cc(C)c1
-0.14,i,CCOC(=O)N1CCN(CC(=O)Nc2nc3ccc(OC)cc3s2)CC1
-0.2,i,O=C(Cn1nnc2ccccc2c1=O)N1CCOCC1
0.77,i,CCN(c1ccccc1)S(=O)(=O)c1ccc(C(C(=O)OC)C(=O)OC)c([N+](=O)[O-])c1
0.27*,-9.1*,CN1CCN(CCCN2c3ccccc3Sc3ccc(Cl)cc32)CC1
2.1,i,O=C1C(Br)=Cc2cccc3cccc1c23
1.1,i,O=C(CCNC(=O)Cn1ccc2ccccc2c1=O)NCCN1CCc2ccccc2C1
-2.1*,-6.6*,Oc1ccccc1N=Nc1nc(-c2ccccc2)c(-c2ccccc2)[nH]1
1.3,i,Cn1cc(Cl)c(C(=O)NC2CCCC2)n1
-0.16,i,Cc1ccc(C(=O)Cn2nnc(-c3cccs3)n2)cc1

Three entries from above, bar-delimited.
SMILES | KCNQ2 block baseline | KCNQ2 block
O=C(CNS(=O)(=O)c1ccc(F)cc1)N1CCN(c2ccccc2)CC1 | -0.05 | i
CCOC(=O)/C(C#N)=C\C1=C(N2CCCC2)CC(C)(C)OC1 | -2.5 | i
CC(=O)Nc1nc(CC(=O)c2ccccc2)cs1 | -2.2 | i
